GALR2 agonist – agonists of human galanin receptor 2 (GALR2). 0.48% of 140,000 active. activation, %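 (tested at 5 µM)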. AID 803. GALR2-expressing cells, agonist activation read-out. O43603;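 active means above mean plus 3 SD of all compounds, about 5% in these data, not always enough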;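 further: 0% = vehicle buffer wells and 100% = reference agonist at full effect; tested in CHO reporter cells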
Insulin prom inh – TRM-6 insulin promoter activity inhibition. TRM-6 cells (human fetal islet line), insulin promoter-eGFP reporter, imaging; reporter expression induced with tamoxifen. 0.9% of 130,000 active. inhibition, % at 2 µM;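 active means inhibition above the mean plus 3 SD, with well images judged a real hit on visual review, cut at about 60% in these data, passing the limit was not always enough; inconclusive means inhibition over the cutoff but images rejected on review; inactive means inhibition not above the cutoff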
RGS16-Gao – RGS16-Galphao interaction regulator (human); 0.38% of 220,000 active; binding response (% of control), % at 10 µM; bead-based flow cytometry RGS16-Galphao binding, fluorescence; actives lie on both sides; AID 1441; O15492+P09471;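 active means below 25% or above 175%, edge rows of some plates excepted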;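 further: Galphao activated by GDP with aluminum fluoride before binding; 100% = wells without compound and 0% = beads without RGS; some results beyond the cut were filed as inactive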
HSV replic up – increases HSV replication in cells. HSV replication augmentation in cells, fold increase. maximum fold increase. 0.005% of 220,000 active;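 active means peak rise of 1.5-fold or more in the series; inconclusive means self-fluorescent or not available for retest; tested in PC3 cells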;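 further: first round at 10 µM; read as green reporter fluorescence; hits show the peak of a series up to 25 µM; 1 = signal of infected wells without compound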
PKD1 inh – inhibitors of human PKD1 kinase | inhibition, %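 (about 10 µM by stock and volumes)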 | Q15139 | PKD1 kinase fluorescence polarization assay | 0.056% of 200,000 active;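 active means inhibition of 50% or more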;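 further: controls were vehicle for no effect and a reference inhibitor for full effect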
Target sequence (Q15139 whole entry, looked up): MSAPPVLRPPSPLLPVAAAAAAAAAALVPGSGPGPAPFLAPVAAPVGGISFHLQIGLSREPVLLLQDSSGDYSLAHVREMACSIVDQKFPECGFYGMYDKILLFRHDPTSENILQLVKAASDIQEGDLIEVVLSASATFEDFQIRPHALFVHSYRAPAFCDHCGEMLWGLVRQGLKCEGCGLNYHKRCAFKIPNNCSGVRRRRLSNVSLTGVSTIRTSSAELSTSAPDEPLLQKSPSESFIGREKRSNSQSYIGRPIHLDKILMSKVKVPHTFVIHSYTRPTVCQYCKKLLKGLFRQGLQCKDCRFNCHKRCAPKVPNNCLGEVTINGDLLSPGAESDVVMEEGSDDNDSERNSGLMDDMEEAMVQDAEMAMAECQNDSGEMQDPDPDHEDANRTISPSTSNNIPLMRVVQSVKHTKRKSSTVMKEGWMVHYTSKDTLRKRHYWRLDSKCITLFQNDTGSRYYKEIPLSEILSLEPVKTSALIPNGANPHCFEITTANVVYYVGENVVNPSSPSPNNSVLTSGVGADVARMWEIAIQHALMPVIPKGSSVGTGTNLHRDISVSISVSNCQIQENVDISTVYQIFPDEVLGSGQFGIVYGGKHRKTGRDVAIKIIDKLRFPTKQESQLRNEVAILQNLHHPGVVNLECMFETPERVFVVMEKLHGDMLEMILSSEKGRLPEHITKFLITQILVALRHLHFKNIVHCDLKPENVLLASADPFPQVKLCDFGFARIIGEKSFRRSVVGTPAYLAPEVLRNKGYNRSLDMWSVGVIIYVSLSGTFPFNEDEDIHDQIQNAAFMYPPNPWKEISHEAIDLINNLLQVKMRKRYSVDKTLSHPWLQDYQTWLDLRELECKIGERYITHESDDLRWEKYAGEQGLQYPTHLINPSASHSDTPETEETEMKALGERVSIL
Insulin prom inh cell count – also measured in Insulin prom inh; calls as there; normalized cell count, %; measured here: cell count, toxicity; reference of the scale not given here;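 cells exposed to compound for 48 h; stained nuclei by imaging scaled within each plate; lower means fewer cells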
HSV replic up primary fold – further read-out of HSV replic up, marked with its call; fold increase; compound at 10 µM; measured here: primary screen fold increase 10 uM; tested in PC3 cells;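 GFP signal in the first replicate; 1 = infected wells without compound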
The depositor's hits bear a star; i = inactive; ? = inconclusive; / = no result given.

SMILES	GALR2 agonist	Insulin prom inh	Insulin prom inh cell count	RGS16-Gao	HSV replic up	HSV replic up primary fold	PKD1 inh
Cc1ccc(S(=O)(=O)CCSc2nc(C)cc(C(F)(F)F)c2C#N)cc1	-2.5	-106	102	118	i	1.1	-6
CC1=NN(c2ccc(C)cc2)C(=O)/C1=C\C=C\c1ccccc1	0.1	57	107	104	i	0.91	-6
CN(C)S(=O)(=O)c1cc(NC2CC(=O)N(c3ccc(F)cc3)C2=O)ccc1Cl (centres undefined)	/	6	57	105	i	0.92	-3
COCCN1C(=O)C(=O)/C(=C(/O)c2ccc(S(=O)(=O)N3CCOCC3)cc2)C1c1cccc(Cl)c1 (centres undefined)	/	/	/	82	i	1.1	/
COc1ccc(CNN2CCCCC2C(=O)Nc2ccc(OC)c(OCC(C)C)c2)cc1OC (centres undefined)	/	/	/	98	i	1	/
Nc1cc(=O)[nH]c(SCC(=O)Nc2ccccc2Sc2ccccc2)n1	/	29	137	101	i	1	5
O/N=C/c1cc(Cl)ccc1OCc1ccccc1Cl	0.1	0	119	94	i	0.97	-15
CCc1cccc(NC(=O)C2CCCN(S(=O)(=O)c3c(C)[nH]c(=O)[nH]c3=O)C2)c1 (centres undefined)	-0.5	-83	116	103	i	0.93	-7
O=C(COc1ccc(/C=N/NC(=O)c2ccccc2)cc1)Nc1ccc([N+](=O)[O-])cc1	-2.1	14	119	101	i	1.1	4
COc1ccc(-c2c3c(=O)n(C)c(=O)n(C)c3cn2NC(C)=O)cc1	-0.5	3	70	76	i	0.81	-3
CCN1CCN(C(CNS(=O)(=O)c2ccc(OC)cc2)c2cccnc2)CC1 (centres undefined)	-1.5	14	72	100	i	0.93	0
Cc1ccc(C(=O)Cn2nnc(-c3ccccc3)n2)cc1	/	/	/	99	i	0.99	/
O=[N+]([O-])c1ccc(OC(F)F)c(/C=N/n2cnnc2)c1	/	/	/	105	i	1	/
CN1CCN(NC(=O)c2cccs2)CC1	/	/	/	103	i	0.92	1
Cc1[nH][nH]c(=O)c1C=Nc1ccc(C(F)(F)F)cc1	/	/	/	103	i	0.91	-2
Cc1cc(=O)oc2cc(OCC(=O)OCC(=O)Nc3ccc4ccccc4c3)ccc12	-1.0	-7	158	108	i	1	0
O=C(CN1CCOCC1)Nc1ccc2c(c1)OCCO2	/	/	/	100	i	1	/
COc1ccc(CNC(=O)c2ccc(CNc3c(NC4CCCCC4)c(=O)c3=O)cc2)cc1	0.3	-50	119	98	/	/	-9
COc1ccc2nc(SCC(=O)N3CCCCC3)c(C#N)cc2c1	/	21	115	101	i	1	1
Fc1ccccc1C1c2cccn2CCN1C(=S)Nc1cccc(Br)c1 (centres undefined)	/	8	90	97	i	0.96	-3
CCNc1nc(NC(C)C)nc(N(C#N)CC(=O)OC)n1	/	43	107	100	i	0.87	-1
COc1ccc(OCC(=O)N(C)Cc2ccccc2)cc1	-0.7	/	/	103	i	0.97	-10
Nc1nc(-c2cccs2)c(CC(=O)O)s1	/	14	82	105	i	0.99	3
Cc1ccc(C)c(S(=O)(=O)Nc2ccc(O)c(C(=O)O)c2)c1	/	/	/	102	i	0.92	16

Of the compounds above, these have a nitro group on carbon.
SMILES	GALR2 agonist	Insulin prom inh	Insulin prom inh cell count	RGS16-Gao	HSV replic up	HSV replic up primary fold	PKD1 inh
O=C(COc1ccc(/C=N/NC(=O)c2ccccc2)cc1)Nc1ccc([N+](=O)[O-])cc1	-2.1	14	119	101	i	1.1	4
O=[N+]([O-])c1ccc(OC(F)F)c(/C=N/n2cnnc2)c1	/	/	/	105	i	1	/

Additional results.
SMILES	GALR2 agonist	Insulin prom inh	Insulin prom inh cell count	RGS16-Gao	HSV replic up	HSV replic up primary fold	PKD1 inh
COc1ccc(OC)c(NC(=O)COC(=O)Cc2ccc(-c3ccccc3)cc2)c1	0.1	/	/	101	i	1	8
COc1cccc(-c2noc(CCCC(=O)N3CCOCC3)n2)c1	/	/	/	103	i	0.95	-7
Cc1ccc(-n2cnnn2)cc1Cl	/	29	97	103	i	0.82	-3
NC(=O)c1ccsc1NC(=O)c1cc(=O)c2ccccc2o1	-0.1	-61	62	62	/	/	-1
N/C(Cc1ccc([N+](=O)[O-])cc1)=N\OC(=O)COc1ccccc1Cl	1.8	21	156	99	i	0.97	-1
COc1ccc(-n2nnc3c(=O)n(Cc4ccccc4C)cnc32)cc1	0.2	-14	92	105	i	0.81	3
CCOc1ccc(OCC(=O)Nc2ccc(OC)cc2)cc1	-1.9	-15	144	102	i	1.1	2
CN(C)c1ccc(/C=C/C#N)cc1	/	/	/	100	i	0.87	/
Cc1cccc(C(=O)Nc2sc(-c3ccccc3)cc2C(=O)O)c1	/	/	/	99	i	0.87	/
CCCc1[nH]nc2c1C(c1ccc(OC(=O)c3ccco3)cc1)C(C#N)=C(N)O2 (centres undefined)	-0.9	/	/	100	i	0.97	2
CCn1cc(CN2CCN(Cc3ccc(OC)c(C)c3C)C(CCO)C2)c(C)n1 (centres undefined)	/	/	/	103	i	0.96	-5
COc1cc2c(cc1OC)C(C(=O)N1CCCC1)C(c1ccccc1F)N(C)C2=O (centres undefined)	-1.2	/	/	101	i	1.1	-1
O=C(C1CCC(Cn2c(=S)[nH]c3ccccc3c2=O)CC1)N1CCN(c2ccccc2)CC1 (centres undefined)	1.7	11	107	/	i	0.9	-9
COc1ccccc1N1CCN(S(=O)(=O)c2ccc3c4c(cccc24)C(=O)N3C)CC1	-0.5	-7	76	-19*	i	0.92	-4
CCC(C)(C)n1nnnc1C(c1cccnc1)N1CCCC(C)C1 (centres undefined)	/	19	178	104	i	1	5
CCNC(=S)N1CCC(n2cnc3ccccc32)CC1	/	/	/	105	i	0.91	-5
Cn1c(=O)c(C=Nc2ccccc2)c(O)c2ccccc21	/	/	/	100	i	1	/
C=CCOc1c(CNn2nnnc2N)cccc1OC	-2.4	-494	32	102	i	0.96	0
COC(=O)c1ccc(=O)n(-c2ccc(OC)cc2)c1	0.3	/	/	98	i	0.82	4
O=c1c(-c2ccco2)[n+]([O-])c2ccccc2n1OCc1ccccc1[N+](=O)[O-]	/	/	/	99	i	0.78	0
CCN(CC)CCNC(=O)c1cc2c(=O)n(C)c3ccccc3c2n1C	-2.3	/	/	101	i	0.77	-1
CCOc1ccc(/C=N/NC(=O)Cc2csc(Nc3cccc(C(F)(F)F)c3)n2)c(OCC)c1	-0.1	/	/	100	i	0.81	-2
CCn1nnc(NC(=O)c2sc3ccccc3c2Cl)n1	-3.9	-106	133	147	i	0.96	-7
CC(=O)N1CCC2(CC1)CC(=O)c1cc(OCC(=O)N3CCOCC3)ccc1O2	/	6	84	104	i	0.9	-2
Cc1ccccc1-n1c(=O)c2ccccc2n2cnnc12	-0.9	0	122	110	i	0.86	-14
CCN(CC)C(=O)c1[nH]cnc1C(=O)N[C@@H](CCCCNC(=O)OC(C)(C)C)C(=O)OC(C)(C)C	/	/	/	91	i	1.1	-1
CCOc1ccc(C(=O)Nc2cc(=O)n(C)c(=O)n2C)cc1	-2.1	/	/	/	i	0.94	-7
C=CCN(CC=C)C(=O)COC(=O)c1ccc(Sc2ncn[nH]2)c([N+](=O)[O-])c1	/	/	/	98	i	0.89	-3
COc1ccc(C2C(C(=O)NCc3ccccc3)=C(C)Nc3ncnn32)cc1OC (centres undefined)	0.9	/	/	102	i	1	-3
Cc1cccc(N2CCN(S(=O)(=O)c3cccc4nonc34)CC2C)c1 (centres undefined)	/	46	101	110	i	0.89	-7
COc1cc(C(c2nnnn2C(C)(C)C)N2CCN(C)CC2)cc(OC)c1OC (centres undefined)	0.0	/	/	108	i	0.89	-5
CC(=O)Nc1ccc(NC(=O)C(C)OC(=O)c2ccc3c(c2)OCCO3)cc1 (centres undefined)	/	/	/	129	i	0.9	/
CCOc1ccc(-c2noc(-c3ccncc3)n2)cc1OCC	0.1	-31	78	65	i	0.87	2
Nn1c(SCC(=O)NCCC2=CCCCC2)nnc1C1CCCCC1	-1.4	/	/	94	i	0.88	-1
COc1cc(/C=N/NC(=O)c2cccs2)ccc1O	/	/	/	84	i	0.9	/
Cn1nc(C(=O)OCC(=O)Nc2ccc(S(N)(=O)=O)cc2)c2ccccc2c1=O	/	/	/	95	i	0.91	/
Cc1ccc(O)c(N=Nc2ccc(S(=O)(=O)N3CCCC3)cc2)c1	/	/	/	100	i	0.92	/
Cc1cc(C(=O)N/N=C/c2cc([N+](=O)[O-])ccc2O)c2ccccc2n1	-0.6	-10	76	81	i	0.8	-6
Cc1c(Cl)c(C(=O)NC2CCCC2)nn1C	-2.2	/	/	108	i	1.1	-13
O=c1cn[nH]c2ccccc12	/	/	/	105	i	1	/
O=C(NC1CCCC1)c1ccc(S(=O)(=O)N2CCCC2)cc1	-0.6	22	51	103	i	0.99	-3
COc1cccc(/C=C2\CCc3ccccc3C2=O)c1	/	/	/	97	i	0.73	/
O=C(CSC1CCCCC1)N1CCN(c2ccccc2)CC1	0.5	/	/	102	/	/	0
CC(C)(C)c1ccc(C(=O)Nc2cccc([N+](=O)[O-])c2)cc1	-1.7	72*	139*	104	i	0.68	-11
CC(C)C(=O)N1CCN(c2ccc(NC(=O)c3cccs3)cc2)CC1	-2.7	44	133	107	i	0.93	-8
Cc1cccc(-n2ncc3c(N4CCCC4)ncnc32)c1	-0.1	3	85	103	i	0.62	3
Cn1c(=O)n(CCN2CCOCC2)c(=O)c2c1nc1n2CCN1c1ccccc1	-5.6	28	152	/	/	/	-13
CC(C)OC(=O)CSc1nnc(-c2ccccn2)n1N	/	/	/	100	i	0.92	/

Look-ups from the list.
HSV replic up primary fold result of O=C(NC1CCCC1)c1ccc(S(=O)(=O)N2CCCC2)cc1 → 0.99
HSV replic up primary fold result of O=c1cn[nH]c2ccccc12 → 1
PKD1 inh result of CC(C)(C)c1ccc(C(=O)Nc2cccc([N+](=O)[O-])c2)cc1 → -11
Insulin prom inh result of CC(C)C(=O)N1CCN(c2ccc(NC(=O)c3cccs3)cc2)CC1 → 44
Insulin prom inh result of Cn1c(=O)n(CCN2CCOCC2)c(=O)c2c1nc1n2CCN1c1ccccc1 → 28
RGS16-Gao result of COc1cccc(/C=C2\CCc3ccccc3C2=O)c1 → 97
RGS16-Gao result of Cc1ccc(O)c(N=Nc2ccc(S(=O)(=O)N3CCCC3)cc2)c1 → 100

New compounds follow.
SMILES	GALR2 agonist	Insulin prom inh	Insulin prom inh cell count	RGS16-Gao	HSV replic up	HSV replic up primary fold	PKD1 inh
C=CCn1c(O)c(N=NC(=O)CNC(=O)c2cccs2)c2ccccc21	1.5	-22	124	105	i	0.84	-4
C/C=C\C(=O)Nc1cccc(C2=NOC3(C2)C[C@H](C(N)=O)N(C(=O)[C@H]2CCC(=O)N2)C3)c1 (some centres undefined)	/	/	/	100	i	0.76	/
Cc1sc2nc(SCC(=O)N3CCCCC3)[nH]c(=O)c2c1C	-4.0	50	72	92	i	0.98	3
COc1ccc(-c2cc(C(F)(F)F)n3nc(C(=O)N4CCCC4)cc3n2)cc1	2.6	/	/	105	i	0.95	-5
Cc1csc(NC(=O)C2CCN(S(=O)(=O)c3ccc4c(c3)oc(=O)n4C)CC2)n1	-1.4	/	/	107	i	0.79	-16
O=C(Oc1c(-c2ccccc2)c(=O)n2c3c(cccc13)CC2)c1cccc([N+](=O)[O-])c1	/	/	/	100	i	1.1	/
CCc1nc2oc3ccccc3c(=O)c2c(=O)n1-c1ccc(C)cc1	/	/	/	93	i	1.1	/
O=C(O)c1ccc(CSc2n[nH]c(-c3ccco3)n2)cc1	3.1	65	30	100	i	0.94	-3
CCSc1nc2sc3c(c2c2nnc(SCC(=O)NCc4ccco4)n12)CCCC3	-0.9	36	112	/	i	0.94	-8
Cc1ccc(N=Cc2nc(/C=C/c3cccc([N+](=O)[O-])c3)oc2O)cc1	0.5	-39	23	98	?	/	3
Clc1ccc(CSc2nnc(-c3ccncc3)o2)c(Cl)c1	-0.4	/	/	95	i	1	-5
Cc1cc(NS(=O)(=O)c2ccc(NC(=O)Nc3ccccc3)cc2)no1	-0.9	/	/	93	i	0.86	-6
COc1cc2c(cc1OC)-c1cc(N3CCCCCC3)nc(=O)n1CC2	0.1	-24	85	94	i	0.91	-5
CCCc1cc(NCc2ccccn2)n2c(nc3ccccc32)c1C#N	/	0	178	105	i	0.93	6
O=C(NC12CC3CC(CC(C3)C1)C2)c1cc2nc(-c3ccco3)cc(C(F)(F)F)n2n1	0.2	/	/	104	i	0.83	-18
CC(=O)c1ccc(NC(=O)COc2ccccc2C(=O)Nc2ccc(C)cn2)cc1	/	/	/	97	i	0.89	-2
CCC1CCCCN1C(=O)c1nn2cccnc2c1Cl (centres undefined)	-1.4	-272	72	78	i	1.1	1
Cc1cc(=O)[nH]c2c1c(C)nn2C1CCOC(C)(C)C1 (centres undefined)	-2.4	40	134	104	i	1	-7
COc1ccc(C2C(C#N)=C(N)Oc3n[nH]c(C)c32)cc1Cn1nc(C)c([N+](=O)[O-])c1C (centres undefined)	-1.7	0	84	61	i	0.89	-1
Nc1cccc(-n2cccc2)c1	/	/	/	93	i	0.92	-3

Screens (PubChem BioAssay)
